gsp agonist – qHTS for Agonist of gsp, the Etiologic Mutation Responsible for Fibrous Dysplasia/McCune-Albright Syndrome: qHTS; gsp mutant cells, cAMP HTRF, 30 min; control for the full effect not named in the record; Potency, µM (top dose mostly 76.9 µM), for the others: at the top dose activation (cAMP increase), hits mostly activators; 0.13% of 340,000 active; active = well fitted activation curve with a large enough effect; inconclusive = small, poorly fitted or top-dose-only effect, or another doubt; inactive = no such curve, though single readings can be large or run the other way; cell line not stated here;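 further: phosphodiesterase inhibitor Ro 20-1724 added with compounds to block cAMP breakdown; potency means the concentration at half of the fitted maximal effect; nearly all actives have a fitted effect of over 60% in size; about a fifth of the inactives were tested at one dose only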
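Cells in DMEM/10% FBS with G418 were pretreated with compounds in DMSO plus […] (300 uM stock) for 30 min at 37C. cAMP was measured by HTRF (cAMP-d2 plus anti-cAMP antibody-K) after 30 min at room temperature.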
ClpP mod – qHTS Assay for Activators of ClpP; ATP-dependent Clp protease proteolytic subunit (Bacillus subtilis (strain 168)), P80244; purified B. subtilis ClpP, FRET peptide cleavage, 20 min; Potency, µM (doses to about 57.5 µM), for inactives: at the top dose activity change, negative = active; 1.9% of 340,000 active; AID 651965, 2013; active = well fitted falling curve with a large enough effect; inconclusive = small, poorly fitted or top-dose-only effect; inactive = no such curve, though single readings can be large or run the other way; further: potency means the concentration at half of the fitted maximal effect; the source files actives as falling curves though it sought activators and does not explain the sign; nearly all actives have a fitted effect of over 65% in size; many hits overshoot -100%
Target sequence (P80244 whole entry, looked up): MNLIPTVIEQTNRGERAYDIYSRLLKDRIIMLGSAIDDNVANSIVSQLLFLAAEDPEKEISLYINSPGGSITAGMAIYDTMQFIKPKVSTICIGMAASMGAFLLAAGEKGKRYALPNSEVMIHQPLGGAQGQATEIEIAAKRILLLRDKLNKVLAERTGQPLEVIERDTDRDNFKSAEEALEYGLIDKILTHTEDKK
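Buffer: 100 mM Tris/HCl pH8, 100 mM KCl, 0.05% low protease BSA, 2.5% glycerol, 0.01% Tween-20. ClpP 10 microg/mL final; 20 min RT; delta FRET normalized to ADEP and DMSO controls.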
Menin-MLL FL inh – qHTS Assay for Inhibitors Targeting the Menin-MLL Interaction in MLL Related Leukemias: Competition With Fluorescein Labeled MLL-derived Peptide. Fluorescence polarization, fluorescein-MLL peptide displacement from menin. FP activity change, % at 61.4 µM. 290,000 tested, under 10 active; inconclusive = falling polarisation curve, or a change in total fluorescence; inactive = total fluorescence flat and polarisation flat or rising; no compound was filed as active; the % refers to the polarisation; negative = inhibition;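 further: % of control where 0% means no effect; inhibitors lower the polarisation; unlabelled MLL peptide was the positive control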
Sfp inh – qHTS Assay for Inhibitors of Bacillus subtilis Sfp phosphopantetheinyl transferase (PPTase). 4'-phosphopantetheinyl transferase ffp (Bacillus subtilis), Q9F4F7. 3.5% of 310,000 active. Biochemical Sfp PPTase activity, qHTS. Potency, µM, inactives show max response, negative = inhibition, most hits filed as inhibitors. AID 1490, 2009; active means well fitted inhibition curve with a large enough effect; inconclusive means small, poorly fitted or top-dose-only effect, or another doubt; inactive means no such curve, though single readings can be large or run the other way;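 further: the enzyme is Sfp with the accession as filed and its product quenches rhodamine fluorescence; potency means the concentration at half of the fitted maximal effect; 0% = enzyme reaction without inhibitor and -100% = no enzyme wells; top concentration of the series not given in the record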
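Fluorescence-quenching assay: 15 nM Sfp-PPTase preincubated 15 min at room temperature with compound, then 5 uM rhodamine-CoA and 12.5 uM BHQ-2-labelled YbbR peptide added. Fluorescence (ex 525/em 598 nm) read at start and after 30 min; difference gives rate.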
gsp antagonist – qHTS for Antagonists of gsp, the Etiologic Mutation Responsible for Fibrous Dysplasia/McCune-Albright Syndrome: qHTS; Potency, µM (top dose mostly 76.9 µM), for inactives: top-dose activity change, negative = inhibition, usual class: inhibitors; gsp-mutant cells, cAMP HTRF, 30 min; control for the full effect not named in the record; 0.4% of 340,000 active; active = falling curve of any shape with a large fitted effect; inconclusive = falling curve, mostly with a smaller effect; inactive = flat or rising curve; cell line not stated here;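 further: intracellular cAMP measured with PDE inhibitor Ro 20-1724 present during compound exposure; potency means the concentration at half of the fitted maximal effect; on the % scale 0 is the no-effect control and ±100 the full control effect; nearly all actives have a fitted effect of over 65% in size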
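Cells, 2000/well, grown 16–24 h in DMEM 10% FBS with 0.5 mg/ml G418, then compounds plus […] (300 uM addition stock), 30 min at 37C. cAMP read by HTRF (cAMP-d2 and anti-cAMP antibody-K in lysis buffer) after 30 min RT.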
TRPV1 PAM – HTS Assay for Compounds that Act as Potentiators of the Vanilloid Receptor 1; TRPV1-expressing cells, Fluo-8 calcium influx, capsaicin EC20 potentiation; host cell line not named in the record; control for the full effect not named in the record; potentiation, % at 8.33 µM; 0.02% of 320,000 active; AID 540277, 2011; active means potentiation above 80%; inconclusive means 30% to 80%; inactive means below 30%; further: 0% is about no effect
Target sequence (Q8NER1 whole entry, looked up): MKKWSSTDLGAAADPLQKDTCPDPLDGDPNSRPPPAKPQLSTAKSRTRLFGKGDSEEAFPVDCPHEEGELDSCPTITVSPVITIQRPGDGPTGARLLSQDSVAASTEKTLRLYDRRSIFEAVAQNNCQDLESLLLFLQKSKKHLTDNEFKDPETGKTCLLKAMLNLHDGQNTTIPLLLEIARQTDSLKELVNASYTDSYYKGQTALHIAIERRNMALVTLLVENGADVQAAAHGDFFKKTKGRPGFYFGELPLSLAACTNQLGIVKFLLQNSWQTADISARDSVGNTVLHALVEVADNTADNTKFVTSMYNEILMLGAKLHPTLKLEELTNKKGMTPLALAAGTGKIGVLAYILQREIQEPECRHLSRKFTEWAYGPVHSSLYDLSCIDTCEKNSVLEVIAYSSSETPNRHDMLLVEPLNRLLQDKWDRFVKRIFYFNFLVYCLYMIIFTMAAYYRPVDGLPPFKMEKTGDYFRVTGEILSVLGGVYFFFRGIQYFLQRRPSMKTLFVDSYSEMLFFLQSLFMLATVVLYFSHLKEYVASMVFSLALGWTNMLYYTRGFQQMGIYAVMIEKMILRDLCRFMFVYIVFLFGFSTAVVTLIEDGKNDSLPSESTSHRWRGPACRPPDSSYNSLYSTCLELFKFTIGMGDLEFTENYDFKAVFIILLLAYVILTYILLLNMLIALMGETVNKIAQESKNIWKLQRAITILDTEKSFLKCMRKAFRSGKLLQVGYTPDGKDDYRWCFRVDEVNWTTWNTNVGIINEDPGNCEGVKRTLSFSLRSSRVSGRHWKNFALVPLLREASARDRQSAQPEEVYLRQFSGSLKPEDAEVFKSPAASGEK
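Cells expressing TRPV1 were dye-loaded with Fluo-8 and read kinetically: 10 s baseline, 3 min after compound (agonist portion), then 2 min after EC20 capsaicin (allosteric enhancer portion). Calcium-bound dye fluorescence at 480/520 nm.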
TRPML1 inh – qHTS for Inhibitors of the Human Mucolipin Transient Receptor Potential 1 (TRPML1); Mucolipin-1 (Homo sapiens), Q9GZU1; TRPML1-inducible cells, Ca2+ dye fluorescence, FDSS; active compounds read low; inhibition of EC80 agonist-evoked calcium signal; activity change, negative = inhibition, % (concentration not given with the values); 0.02% of 390,000 active; in the data active means activity change below about -50%; inconclusive means about -30% to -50%; inactive means above about -30%;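 further: stimulus is agonist 54-4 at its EC80 concentration; on the % scale 0 is the no-effect control and ±100 the full control effect; the text of the record puts the active cut at -80%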
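Calcium fluorescence in TRPML1-DL cells induced overnight with Tet: a 110 s read after compound pin addition, then a 110 s antagonist read after challenge with 54-4 at 4 uM final (EC80).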
Active calls of the source: *; ? = inconclusive; · = not tested or not shown; & = joins results of further samples; [ ] = another dose, or the depositor's remark.

structure,gsp agonist,ClpP mod,Menin-MLL FL inh,Sfp inh,gsp antagonist,TRPV1 PAM,TRPML1 inh
O=C(Nc1ccc(OC(F)(F)F)cc1)N1CCN(c2ccnc3cc(Cl)ccc23)CC1,-5%,?,1.6,17%,?,-26,-13
N#CC1=C(SCC(=O)NC2CC2)NC(=O)C(C#N)C12CCCCC2 (configuration not stated),-19%,-0.3%,2.3,18%,-9%,4,-14
Cc1ccc(C)c2sc(NC(=O)CN3C(=O)CCC3=O)nc12,?,-1.7%,2.1,-4%,-4%,13,·
O=C(/C=C/c1cccc(F)c1)Nc1nccs1,-15%[15.4 µM],·,-1.0,9%,8%,-18,-12
COc1ccc(CN(C2CCCC2)S(=O)(=O)c2ccc(-n3cnnn3)cc2)cc1,-3%,-2.5%,-2.0,6%,-3%,3,-15
CC1CC(C)CN(S(=O)(=O)c2ccc(C(=O)Nc3sccc3C(N)=O)cc2)C1 (configuration not stated),-20%,-3.9%,5.1,1%,-6%,-10,8
O=C(Nc1nccs1)C1CCN(S(=O)(=O)c2c(Cl)cccc2Cl)CC1,7%,-2.1%,0.1,7%,-10%,11,-10
COc1ccc(OC)c(S(=O)(=O)NCc2cn3ccsc3n2)c1,0%[15.4 µM],·,-0.1,8%,8%,-8,3
COc1ccccc1CNCC(c1ccccc1)c1ccccc1,·,·,-0.9,-10%,·,-7,·
COc1ccc(-c2nc(SC(C)C(=O)Nc3ccc(NC(C)=O)cc3)n[nH]2)cc1 (configuration not stated),-6%,-0.2%,·,·,11%,-4,23
O=C(CN1CCOCC1)N1CCN(c2nnc(-c3ccccc3)c3ccccc23)CC1,29%,-0.5%,-8.5,17%,5%,2,-2
CCOC(=O)CN(c1sc(C)c(C)c1C(=O)OCC)S(=O)(=O)c1ccc(C)cc1,-11%,2.2%,·,·,·,·,4
OCCNC(=S)NCc1ccccc1,-1%,-1.9%,0.3,3%,3%,-8,27
COc1ccc(N2CCN(C(CNC(=O)C(=O)NCc3cccnc3)c3ccco3)CC2)cc1 (configuration not stated),17%,-4.2%,2.7,11%,5%,14,·
C[C@H]1CN([C@@H](C)CO)C(=O)CCCn2nncc2CO[C@H]1CN(C)S(=O)(=O)c1cccs1,-62%[inhibitor],-2.5%,·,·,·,·,-13
Cc1cc(C)cc(NC(=O)CSc2nnc(CNC(=O)c3cccs3)o2)c1,-6%,-0.5%,-0.1,3%,3%,0,-1
C=CCn1c(SCC(=O)N(CC)CC)nc(O)cc1=O,5%,-1.2%,1.5,6%,-2%,0,-3
NC(=O)C[N+]1(CC#CC(O)(c2ccccc2)c2ccccc2)CCCC1,4%,·,-1.7,-12%,2%,-27,3
CCN(CC)CCn1c(NCc2nc3ccccc3n2Cc2ccccc2)nc2ccccc21,4%,0.6%,3.4,2%,14%,-22,14
COc1ccc2nc(NC(=S)NC(=O)c3ccco3)sc2c1,?,3.1%,-0.1,?,9%,5,-3
CCCc1nn2c(=O)cc(CSCC(=O)Nc3ccc(C)cc3)nc2s1,29%,0.2%,1.2,10%,3%,-2,-5
CCn1c(SCC(=O)Nc2cccc(NC(C)=O)c2)nnc1-c1ccco1,-1%[15.4 µM],?,-1.0,0%,7%,-1,48
Cc1csc2ncnc(N3CCN(C(=O)Nc4ccc(OC(F)(F)F)cc4)CC3)c12,-10%,0.5%,1.7,21%,?,-39,38
CN(C(=O)C1CCN(S(=O)(=O)c2cccs2)CC1)c1ccccc1,-15%,·,-3.8,3%,-2%,10,0
C[C@H]1C[C@H]2[C@@H]3CCC4=CC(=O)C=C[C@]4(C)[C@@]3(Cl)[C@@H](O)C[C@]2(C)[C@@]1(O)C(=O)CO,·,0.9%,1.1&-1.2,-6%&1%,-8%,15,6
CCC(=S)/C=C1\Sc2ccccc2N1CCCS(=O)(=O)O,25%,0.7%,7.3,-104%,10%,6,18
CCN(CCNC(=O)C1CCN(S(=O)(=O)c2cccc3nsnc23)CC1)c1ccccc1,24%,-0.1%,-0.6,-1%,4%,·,-18
O=C1NC(=S)N/C1=C\c1cccc([N+](=O)[O-])c1,7%,-4.3%,1.0,56µM*,-1%,0,8
O=[N+]([O-])c1cccc(S(=O)(=O)NCCc2cccs2)c1,-41%[inhibitor],·,-0.6,11%,2%,-4,-3
Cc1cc2ccccn2c1C(=O)c1cccc(F)c1,8%[15.4 µM],·,3.7,0%,7%,3,4
CSc1nnc2c3ccccc3n(CCc3ccccc3)c2n1,?,-1.9%,1.4,?,?,6,69
COC(=O)N1CC(C)N(C(=O)OC)CC1C (configuration not stated),6%,-1.8%,0.9,13%,-1%,1,5
CCOC(=O)/C(=N\Nc1ccc(C(C)=O)cc1)c1csc(Nc2ccccc2)n1,-70%[inhibitor],-6.2%,?,-10%,-13%,8,3
Cc1cccc(-c2nc(S(=O)(=O)c3ccc(F)cc3)c(NCCCN3CCOCC3)o2)c1,?,-3.5%,·,-10%,-9%,-16,67
CCCCOc1ccc(C(=O)NN2C(=O)NC3(CCCCC3)C2=O)cc1OC,-2%,0.4%,·,·,18%,3,-2
O=C(OC1CCCCC1=O)c1ccc(F)c(S(=O)(=O)N2CCOCC2)c1 (configuration not stated),-17%,0.3%,·,·,6%,6,3
Fc1ccc(N2CCN(Cc3cnc(Cl)s3)CC2)cc1,6%[15.4 µM],-3.0%,0.1,14%,10%,-2,3
CCn1nnc(NC(=O)c2ccc([N+](=O)[O-])o2)n1,-24%[15.4 µM],·,4.6,18%,·,1,3
CCCSc1nnc(Sc2nnnn2-c2ccccc2)s1,?,-3.5%,3.5,6%,9%,3,-8
COc1ccccc1N(C(=O)c1ccco1)C(C(=O)NC1CCCC1)c1ccc(N2CCOCC2)cc1 (configuration not stated),?,0.4%,·,22%,-14%,0,-18
COc1ccc(-c2nnc(C3CCN(S(=O)(=O)c4ccccc4)CC3)o2)cc1,0%,-2.0%,-9.6,-15%,-19%,23,31
COc1ccccc1N/C(=N/c1nc(C)cc(C)n1)NC(C)=O,·,·,4.9,5%,·,13,·
CCCN(CC(=O)Nc1ccccc1C)C(=O)c1cccc(S(=O)(=O)N2CCc3ccccc3C2)c1,20%,1.0%,·,6%,?,3,65
O=C(N[C@@H](Cc1ccccc1)C(=O)NC1CC1)c1ccc(Cl)cc1,-3%,·,-16,14%,6%,6,-7
CN1CCN(S(=O)(=O)c2ccc(-c3ccccc3)cc2)CC1,-7%,-2.4%,-3.8,4%,1%,-14,-6
Cc1cccc(N(C)C(=O)CN(C)S(=O)(=O)c2ccc3c(c2)c(=O)n(C)c(=O)n3C)c1,?,-1.2%,·,16%,-3%,26,9
CCCCC(=O)N1CCCC(c2nc(-c3cccc(OC)c3)no2)C1 (configuration not stated),?,1.1%,-2.7,2%,-21%,-5,-3
COc1ccc(C(=O)NCC(=O)OCCCOC(=O)CNC(=O)c2ccc(OC)c(OC)c2)cc1OC,?,-1.8%,-4.4,5%,-15%,0,-12
C[C@]12c3[nH]c4ccc(Cl)cc4c3CCN1C(=O)[C@@H](CC(=O)NCCCn1ccnc1)C[C@@H]2C(=O)N1CCCCC1,·,1.5%,·,·,-2%,·,12
NC(=S)Nc1ccc(Oc2ccc(NC(N)=S)cc2)cc1,-11%,-1.6%,3.2,-11%,8%,13,-4
O=C(NCCC1=CCCCC1)C1CCN(S(=O)(=O)c2cccs2)CC1,-48%[inhibitor],0.4%,-2.6,9%,-3%,-16,3
N=C1C(=O)OCC1c1ccccc1NC(=O)c1ccccc1 (configuration not stated),-19%,-2.0%,0.2,6%,4%,-1,3
COc1cc(NC(=O)Nc2ccc(C)cc2)cc([N+](=O)[O-])c1,-2%[15.4 µM],1.3%,4.4,-2%,-17%,-49,21
COc1ccc(-n2cc(CN(C)CCO)c(-c3cccc(F)c3)n2)cc1,?,4.0%,0.1,10%,5%,-4,-8
COc1ccccc1NS(=O)(=O)c1cccc(C(=O)N/N=C(/C)c2ccc(-n3ccnc3)cc2)c1,-4%,1.0%,·,·,?,·,6
O=C(Nn1cnnc1)c1cc2cc(Br)ccc2oc1=O,?,-1.5%,1.2,7%,3%,3,33
Cc1nc(SCC(=O)NCC2CCCO2)c2oc3ccccc3c2n1 (configuration not stated),?,-4.1%,-0.1,1%,33%[activator],0,11
C[C@@H]1CN([C@H](C)CO)S(=O)(=O)c2ccc(Br)cc2O[C@@H]1CN(C)C(=O)CN1CCOCC1,-8%,1.7%,·,·,·,·,3
Cc1ccc(NS(=O)(=O)c2cc(N)ccc2Cl)c(C)c1,-16%,0.8%,-0.7,-20%,-4%,-9,·
Cc1ccc(N(C)S(=O)(=O)c2cccc(C(=O)NNC(=O)c3ccncc3)c2)cc1,-3%,-1.3%,·,·,-1%,8,-14
Cc1ccc(NC(=O)N2CCCC2C(=O)Nc2ccc3c(c2)OCO3)cc1 (configuration not stated),2%,·,0.1,-1%,12%,-1,-13
O=C/C(=C\Nc1ccc(S(=O)(=O)CCO)cc1)c1nc2cc(Cl)ccc2o1,-22%[15.4 µM],·,21,1%,-19%,0,-11
O=C(COc1ccccc1[N+](=O)[O-])N/N=C/C=C/c1ccco1,-18%,1.2%,4.0,50µM*,-7%,-3,-5
